2A firefly: lowers the firefly signal of an FMDV 2A StopGo reporter; actives 0.23% (n = 120,000); AID 1745856; Potency, µM (doses to about 57.5 µM), for the others: at the top dose signal change, negative = less light; HEK cells with a luciferase reporter of 2A StopGo recoding; active = well fitted falling curve with a large enough effect; inconclusive = small, poorly fitted or top-dose-only effect; inactive = no such curve, though single readings can be large or run the other way; also: nearly all actives have a fitted effect of over 60% in size; overnight with compound
2A Renilla: lowers the Renilla signal of an FMDV 2A StopGo reporter | HEK cells with a luciferase reporter of 2A StopGo recoding | Potency, µM (series often up to 57.5 µM), without a hit: top-dose signal change, negative = less light | actives 0.32% (n = 120,000); active means well fitted falling curve with a large enough effect; inconclusive means small, poorly fitted or top-dose-only effect; inactive means no such curve, though single readings can be large or run the other way; also: nearly all actives have a fitted effect of over 55% in size; overnight with compound
* hit, by the source's call; u = inconclusive; [ ] = another dose, or the depositor's remark. % is scaled to controls: 0 for no effect and ±100 for the full control effect; potency is read from the fitted curve at half-maximal effect. A portion of the library. The share of hits here may be higher or lower than overall.

[1] COc1ccc(-c2c(C#N)c(SCC(=O)Nc3ccc(C)c(C)c3)nc(C)c2C(=O)Nc2ccccc2)cc1OC
  2A firefly: -8%
  2A Renilla: -12%
[2] Cc1cc2n(n1)CCCN2C(=O)Nc1cccc(C)c1C
  2A firefly: 2%
  2A Renilla: -10%
[3] COc1cccc2cc(-c3cc(=O)oc4cc(OCC(=O)C(C)(C)C)ccc34)c(=O)oc12
  2A firefly: 9%
  2A Renilla: 3%
[4] O=C(NCc1noc(-c2ccccc2)n1)c1ccc(Br)o1
  2A firefly: 26%
  2A Renilla: 43%[activator]
[5] Nc1nc(N)c2nc(-c3ccccc3)c(N)nc2n1
  2A firefly: 12%[11.5 µM]
  2A Renilla: -23%
[6] O=C(c1ccc(Br)cc1)N(C1CCCCC1)C1CCCCC1
  2A firefly: u
  2A Renilla: u
[7] CC(C)=CC1C(C(=O)OCN2C(=O)C3=C(CCCC3)C2=O)C1(C)C (stereo not given)
  2A firefly: -3%
  2A Renilla: -11%
[8] O=C(c1ccccc1Br)N(Cc1ccco1)Cc1ccco1
  2A firefly: -12%
  2A Renilla: 14%
[9] Cc1nn(-c2nc3c(c(=O)[nH]c(=O)n3C)n2CCCc2ccccc2)c(C)c1C
  2A firefly: -2%
  2A Renilla: 2%
[10] CCOc1ccc(Nc2ncnc3c2c(-c2ccccc2)cn3-c2cccc(C)c2)cc1
  2A firefly: -12%
  2A Renilla: -13%
[11] COc1ccc(CNC(=O)C2Cc3cc(S(=O)(=O)N4CCCCCC4)ccc3N2C(C)=O)cc1 (stereo not given)
  2A firefly: -22%
  2A Renilla: -14%
[12] CN(c1ccccc1)C(CNS(=O)(=O)c1ccccc1)c1ccccc1 (stereo not given)
  2A firefly: -14%
  2A Renilla: 316%[activator]
[13] CCN1CCN(c2ncc3c(n2)CCN(CC(C)C)C3)CC1
  2A firefly: -7%
  2A Renilla: -7%
[14] C#CC[N+](C)(C)CCCCCCCCCCCC
  2A firefly: u
  2A Renilla: u
[15] Cc1ccc(S(=O)(=O)c2nc(-c3ccccc3F)oc2NCc2ccccc2)cc1
  2A firefly: -3%
  2A Renilla: 190%[activator]
[16] CN(C)CCNc1oc(-c2ccc(S(=O)(=O)N(C)C)cc2)nc1C#N
  2A firefly: -6%
  2A Renilla: 24%
[17] CCCOc1ccccc1C(=O)N1CCC(c2nc3ccccc3s2)CC1
  2A firefly: u
  2A Renilla: u
[18] COc1ccc(C(=O)NCC(c2ccc3c(c2)OCO3)N2CCOCC2)cc1 (stereo not given)
  2A firefly: -4%
  2A Renilla: -4%
[19] Cc1cc2oc(C(=O)N(Cc3ccc(N(C)C)cc3)Cc3ccco3)c(C)c2cc1Cl
  2A firefly: 23%
  2A Renilla: -4%
[20] CC(=O)Nc1ccc(Nc2nc3c(S(=O)(=O)c4cc(C)ccc4C)nnn3c3ccsc23)cc1
  2A firefly: -29%
  2A Renilla: 105%[activator]
[21] COCCn1cnnc1SCc1ccc(C(C)(C)C)cc1
  2A firefly: 0%
  2A Renilla: 55%[activator]
[22] COc1ccc(/C=C/c2nc(C#N)c(N3CCCCC3)o2)cc1OC
  2A firefly: 62%[activator]
  2A Renilla: 22%
[23] Cc1cc(S(=O)(=O)Nc2cc3c(cc2NCc2ccccc2)n(C)c(=O)n3C)ccc1F
  2A firefly: 266%[activator]
  2A Renilla: 154%[activator]
[24] COc1cc(CC(=O)OCC(=O)Nc2ccc(OC(F)F)cc2)cc(OC)c1OC
  2A firefly: 50%[activator]
  2A Renilla: 13%
[25] Cc1ccc2c(CC(=O)OCC(=O)c3ccc4c(c3)OCO4)coc2c1
  2A firefly: 41%[activator]
  2A Renilla: 50%[activator]

[26] Cc1nc2ccc(S(=O)(=O)NC(C(=O)NCc3ccccc3Cl)C(C)C)cc2s1 (stereo not given)
  2A firefly: -4%
  2A Renilla: 21%
[27] CCCCCn1cnc2c1c(=O)n(C)c(=O)n2C
  2A firefly: 2%
  2A Renilla: -1%
[28] COC(=O)c1ccn(Cc2ccc(Cl)c(Cl)c2)n1
  2A firefly: 0%
  2A Renilla: 0%
[29] N#Cc1ccc(OCCOC(=O)COc2ccc(Cl)cc2Br)cc1
  2A firefly: 11%
  2A Renilla: -11%
[30] CC(C)(C)c1ccc(-c2nc(SCCCOc3ccccc3)n3[nH]c(=O)cc3n2)cc1
  2A firefly: 0%
  2A Renilla: 9%
[31] COCC(=O)N1N=C(c2cccs2)CC1c1ccc2nccnc2c1 (stereo not given)
  2A firefly: -1%
  2A Renilla: -10%
[32] Cc1ccc(NC(=O)Cn2nc(Cc3ccncc3)c3ccccc3c2=O)c(Cl)c1
  2A firefly: -1%
  2A Renilla: 1%
[33] C=CCNC(=S)Nc1ccc(F)c(Cl)c1
  2A firefly: 17%
  2A Renilla: 0%
[34] C/C(=N\NC(=S)N/N=C(\C)c1ccccc1)c1ccccc1
  2A firefly: 0%
  2A Renilla: 2%
[35] CC(=O)Nc1ccc(NC(=O)C(C)OC(=O)c2ccc3ccccc3n2)cc1 (stereo not given)
  2A firefly: 7%
  2A Renilla: -4%
[36] Cc1cc(Nc2cccc(Cl)c2C)n2nc(Cc3ccccc3)nc2n1
  2A firefly: 0%
  2A Renilla: 10%
[37] Cc1cccc(CCNC(=O)c2ccc3c(c2)nc2n3CCCCC2)c1
  2A firefly: 4%
  2A Renilla: u
[38] CCOc1ccc2oc(=O)cc(CN3CCN(Cc4ccccc4)CC3)c2c1
  2A firefly: 5%
  2A Renilla: -2%
[39] COc1ccc(C2CC(=O)Nc3nc(N)sc32)cc1OCc1ccccc1Cl (stereo not given)
  2A firefly: 3%
  2A Renilla: -1%
[40] CC(C)CCn1nc(C(=O)NCc2ccc(Cl)cc2)c2ccccc2c1=O
  2A firefly: u
  2A Renilla: -15%
[41] O=C1c2ccccc2C(=O)c2ccccc21
  2A firefly: -15%[27 µM]
  2A Renilla: -4%[23.8 µM]
[42] Cc1nnc(NCC(O)COC(C)c2ccccc2)c(C#N)c1C (stereo not given)
  2A firefly: 14%
  2A Renilla: 3%
[43] O=C(Nc1ccc(S(=O)(=O)N2CCCC2)cc1)C1=COCCO1
  2A firefly: 18%
  2A Renilla: 4%
[44] COc1ccc(CNC(=O)Cc2c(C)c3c(O)cc(C)cc3oc2=O)cc1OC
  2A firefly: 5%
  2A Renilla: -3%
[45] CCOc1ccc(NC(=O)C2CCN(c3nc4ccccc4nc3OCC)CC2)cc1
  2A firefly: 8%
  2A Renilla: -1%
[46] Cc1nc2cc(-c3cccc(F)c3)nn2c(C)c1CCC(=O)Nc1ccc(CN2CCCC2)cc1
  2A firefly: u
  2A Renilla: -17%
[47] CC(C)c1nc(OCC(=O)NCc2ccccc2)c(C#N)c2c1CCCC2
  2A firefly: -21%
  2A Renilla: 3%
[48] Cc1ccc2c(c1)Cc1c(nc(-c3ccc(Cl)cc3)nc1SCC(=O)N1CCCCC1)O2
  2A firefly: 14%
  2A Renilla: -24%
[49] CCOC(=O)c1cc(-c2ccccn2)nc2c1c(=O)[nH]c(=O)n2C
  2A firefly: -5%
  2A Renilla: -5%
[50] CN(Cc1ccc(Cl)cc1Cl)C(=O)CCN=C1NS(=O)(=O)c2ccccc21
  2A firefly: 0%
  2A Renilla: 0%

[51] CC(C)c1ccc(NC(=O)c2cc3c(s2)-c2ccccc2SC3)cc1
  2A firefly: 0%
  2A Renilla: 9%
[52] COC(=O)C1CN(C2CCCC2)CCS(=O)(=O)N1Cc1cn(Cc2ccccc2)nn1 (stereo not given)
  2A firefly: 20%
  2A Renilla: 0%
[53] O=C(O)CCCCCN1C(=O)CC(c2ccccc2)CC1=O
  2A firefly: 2%
  2A Renilla: -9%
[54] O=C(COc1ccccc1)OCC(=O)c1ccc2c(c1)OCO2
  2A firefly: 42%
  2A Renilla: 44%
[55] CCCCOc1ccc(C2=NC(c3ccncc3)=Nc3ccc(Br)cc3N2)cc1
  2A firefly: -14%
  2A Renilla: 267%[activator]
[56] N#CCC(=O)c1ccsc1
  2A firefly: 1%
  2A Renilla: 7%
[57] CCn1c(N2CCN(Cc3ccc(Cl)cc3Cl)CC2)nc2c1c(=O)[nH]c(=O)n2C
  2A firefly: 8%
  2A Renilla: 3%
[58] COc1ccccc1N1CCN(C(=O)CCSCc2ccccc2F)CC1
  2A firefly: 53%[activator]
  2A Renilla: 6%
[59] Cc1cc(C)c(NC(=O)Cn2c(=O)n(CCC(=O)NCc3ccc4c(c3)OCO4)c(=O)c3ccccc32)c(C)c1
  2A firefly: -7%
  2A Renilla: -9%
[60] Cn1cc(C(=O)C(=O)NCc2ccccc2)c2ccccc21
  2A firefly: 105%[activator]
  2A Renilla: 85%[activator]
[61] COCCn1cnc2c1c(=O)n(CC(=O)Nc1cccc(C)c1C)c(=O)n2Cc1ccccc1
  2A firefly: -10%
  2A Renilla: -6%
[62] CCCCCn1nc(C(=O)NCC2CCOC2)c2ccccc2c1=O (stereo not given)
  2A firefly: 7%
  2A Renilla: 16%
[63] C[C@H]1CCC[C@@H](O)CCCCCc2cc(O)cc(O)c2C(=O)O1
  2A firefly: -30%
  2A Renilla: -1%
[64] Cc1ccccc1C(=O)N1CCN(CCc2ccccn2)CC1
  2A firefly: 3%
  2A Renilla: -5%
[65] Cn1c(=O)n(-c2ccc(Br)cc2F)c(=O)c2sc3ccccc3c21
  2A firefly: -8%
  2A Renilla: -11%
[66] CCn1cc(C(=O)OCC(=O)Nc2cc(C)cc(C)c2)c(=O)c2ccc(C)nc21
  2A firefly: -28%
  2A Renilla: -16%
[67] Cn1cc(-c2nc(COc3cccc4c3OC(C)(C)C4)cs2)cn1
  2A firefly: -1%
  2A Renilla: 0%
[68] C=C(C)CN(CC)C(=O)Cc1cccs1
  2A firefly: -5%
  2A Renilla: 0%
[69] CCN(Cc1nc(-c2cccc(C)c2)no1)C(=O)Nc1cccc2ccccc12
  2A firefly: u
  2A Renilla: u
[70] CN(C)c1ccc(NC(=O)CC(c2ccccc2)c2ccccc2)cc1
  2A firefly: -17%
  2A Renilla: -5%
[71] Cc1cc(C)cc(NC(=O)CSc2nc(-c3ccccc3)c3cc(F)ccc3n2)c1
  2A firefly: -16%
  2A Renilla: -12%
[72] CCc1ccc(NC(=O)CSc2nc3ccccc3nc2Cc2ccccc2OC)cc1
  2A firefly: 14%
  2A Renilla: 5%
[73] COc1cc2c(=O)n(CCC(=O)NCC3CCCO3)c(=O)n(CC(=O)Nc3ccc(C)c(C)c3)c2cc1OC (stereo not given)
  2A firefly: -20%
  2A Renilla: -7%
[74] CN1CCN(S(=O)(=O)c2cc3cc(Br)ccc3oc2=O)CC1
  2A firefly: 16%
  2A Renilla: 8%
[75] CCc1ccccc1NC(=O)Cn1nnc(-c2nc(-c3ccc(C)cc3)no2)c1N
  2A firefly: 0%
  2A Renilla: -8%

[76] Cc1ccc(-c2cc(C(=O)O)c3cc(Cl)ccc3n2)cc1C
  2A firefly: 27%
  2A Renilla: u
[77] Cc1ccc(CN(C(=O)c2ccc([N+](=O)[O-])cc2)c2ccccn2)cc1
  2A firefly: -3%
  2A Renilla: 50%[activator]
[78] COc1cccc(C(=O)c2cn(CC(=O)Nc3ccc4c(c3)OCCO4)c3nc(C)ccc3c2=O)c1
  2A firefly: -14%
  2A Renilla: 51%[activator]
[79] O=C(c1cc2ccccc2oc1=O)N1CCC(N2CCCCC2)CC1
  2A firefly: -5%
  2A Renilla: -14%
[80] O=C(Nc1oc2ccccc2c(=O)c1-c1cccc(Cl)c1)c1cccc([N+](=O)[O-])c1
  2A firefly: u
  2A Renilla: 10%
[81] CN(C)C1(C#CCCCCC#CC2(N(C)C)CCCCC2)CCCCC1
  2A firefly: -5%
  2A Renilla: -3%
[82] COc1ccc(NC(=O)c2nn(C)c3c2CCc2sccc2-3)cc1OC
  2A firefly: 82%[activator]
  2A Renilla: 23%
[83] COc1ccc(N(C(=O)c2ccccc2)S(=O)(=O)c2ccc3c(c2)n(C)c(=O)n3C)cc1
  2A firefly: -5%
  2A Renilla: -4%
[84] CCC(C)C(NC(=O)C(C)NC(=O)CNC(=O)OCc1ccccc1)C(N)=O (stereo not given)
  2A firefly: 6%
  2A Renilla: -10%
[85] Cc1nc2ccccc2c(C)c1C(=O)O
  2A firefly: -4%
  2A Renilla: 1%
[86] O=C(O)c1ccc(CSc2nc3cccnc3n2Cc2cccc(F)c2)cc1
  2A firefly: -3%
  2A Renilla: -2%
[87] Cc1noc2ncnc(N3CCN(c4cccc(C(F)(F)F)c4)CC3)c12
  2A firefly: -5%
  2A Renilla: -12%
[88] Cc1cc(C)cc(S(=O)(=O)c2cn(C)c3cc(N4CCCC4)c(F)cc3c2=O)c1
  2A firefly: 10%
  2A Renilla: 4%
